A1 inh: caspase 3/7 activation in MEF A1-2A-BIM cells, primary screen, A1 inhibitor project, cell-based, luminescence, HTS; Caspase-Glo 3/7 luminescence, 3 h; percent of clofoctol response, vehicle zero; caspase activation, % (test concentration not listed); 330,000 tested, 0.066% active; AID 2462, 2010;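 active = over half of replicate activation scores above 10%, or exactly half above 10 with the replicate mean above 10; inconclusive = replicate mean below 10 yet half the replicates above 10; inactive = over half of replicates below 10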;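 also: wells of about 30 µL received 50 nL stock; many hits fall short of the cut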
Vif A3G: inhibitors of Vif binding to APOBEC3G peptide, primary screen, biochemical, TR-FRET, GST-Vif 1-94, biotin-A3G peptide, dose response retest (AID 1117319) | Virion infectivity factor (Human immunodeficiency virus type 1 group M subtype B (isolate … | TR-FRET GST-Vif / biotin-A3G peptide binding; higher % means a stronger effect; test concentration not given here; strong numbers were not always called active | one-dose inhibition, %; IC50 in µM for titrated hits | 260,000 tested, 0.57% active;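 active = above the screen mean plus three standard deviations and confirmed in dose response; inconclusive = results disagree or hit not tested in dose response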;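 also: Vif residues 1-94 fused to GST binding biotinylated APOBEC3G peptide 110-148; 0% = full assay without inhibitor and 100% = GST in place of GST-Vif; retest series ran down from 100 µM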
Beta cell apopt: inhibitors of cytokine-induced beta cell apoptosis, primary screen, luminescence; INS-1E cytokine-induced death, ATP luminescence, 48 h; percent of positive-control rescue, neutral wells zero; protection from apoptosis, % (test concentration not listed); 300,000 tested, 0.8% active; AID 435005, 2010;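 active = all replicates at 75% or more, or half of them and the mean; inconclusive = half reach 75% but not the mean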;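 also: 0% = cytokine-treated negative control wells and 100% = positive control rescue; higher means more ATP so stronger rescue from cytokine killing; wells of about 40 µL received 100 nL stock; the first replicate is given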
T cruzi inh: inhibitors of intracellular T. cruzi growth, primary screen, luminescence, NIH3T3 host cells | 300,000 tested, 1.4% active | inhibition, % (concentration not given with the values) | T. cruzi beta-gal in NIH3T3, 90 h;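 active = mean inhibition across valid replicates above about 55%, limit read from the data; inconclusive = mean below that limit but half or more replicates reach it; inactive = mean below it, under half of replicates reach it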;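 also: signal also drops with host cell toxicity which is not excluded here; 0% = plate median of DMSO wells and 100% = zero luminescence signal; higher percent means less beta-gal luminescence so fewer parasites; stock transfer was 50 nL into about 50 µL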
Calb FLC: C. albicans growth inhibition with fluconazole, primary screen, CaCi-2 strain, Alamar Blue fluorescence | growth inhibition, % (no concentration beside the values) | 300,000 tested, 0.57% active | C. albicans CaCi-2 (fluconazole-resistant clinical isolate) + fluconazole, 48 h;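 active = most replicates above 75%; inconclusive = exactly half above 75%; inactive = most below 75%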;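 also: all wells also contain fluconazole at 8 µg/ml as a sub-toxic cotreatment; 0% = median of DMSO wells and 100% = median of geldanamycin control wells; wells of about 8 µL received 7.5 nL stock; the first replicate is given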
RanGTP-Imp inh: inhibitors of RanGTP-importin-beta interaction, primary screen, biochemical, FRET, CFP-Ran, YFP-importin-beta, homogeneous; Ran GTPase (GTP-bound) - importin-beta complex; cell-free CFP-Ran/YFP-importin-beta FRET ratio; inhibition, % (test concentration not listed); 300,000 tested, 1.1% active; AID 2216, 2009;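 active = most replicates above 15%; inconclusive = exactly half above 15%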;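 also: 0% = DMSO wells and 100% = Ran loaded with GDP instead of GTP; wells of about 40 µL received 100 nL stock; the first replicate is given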
LANA-H2A inh: blockers of LANA interaction with H2A/H2B – biochemical, FP readout, HTS, primary screen. cell-free LANA-H2A/H2B peptide, fluorescence polarization. inhibition, % (no concentration beside the values). 320,000 tested, 0.6% active. AID 2629, 2010; in the data active = inhibition mostly above about 10%, no sharp cut-off; inactive = mostly below about 6.7%;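 also: stock transfer was 7.5 nL into about 10 µL; 0% = median of vehicle wells and 100% = median of positive control wells; one replicate is shown; the record names a cut of 25% in any replicate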
Target sequence (Q9QR71 whole entry, looked up): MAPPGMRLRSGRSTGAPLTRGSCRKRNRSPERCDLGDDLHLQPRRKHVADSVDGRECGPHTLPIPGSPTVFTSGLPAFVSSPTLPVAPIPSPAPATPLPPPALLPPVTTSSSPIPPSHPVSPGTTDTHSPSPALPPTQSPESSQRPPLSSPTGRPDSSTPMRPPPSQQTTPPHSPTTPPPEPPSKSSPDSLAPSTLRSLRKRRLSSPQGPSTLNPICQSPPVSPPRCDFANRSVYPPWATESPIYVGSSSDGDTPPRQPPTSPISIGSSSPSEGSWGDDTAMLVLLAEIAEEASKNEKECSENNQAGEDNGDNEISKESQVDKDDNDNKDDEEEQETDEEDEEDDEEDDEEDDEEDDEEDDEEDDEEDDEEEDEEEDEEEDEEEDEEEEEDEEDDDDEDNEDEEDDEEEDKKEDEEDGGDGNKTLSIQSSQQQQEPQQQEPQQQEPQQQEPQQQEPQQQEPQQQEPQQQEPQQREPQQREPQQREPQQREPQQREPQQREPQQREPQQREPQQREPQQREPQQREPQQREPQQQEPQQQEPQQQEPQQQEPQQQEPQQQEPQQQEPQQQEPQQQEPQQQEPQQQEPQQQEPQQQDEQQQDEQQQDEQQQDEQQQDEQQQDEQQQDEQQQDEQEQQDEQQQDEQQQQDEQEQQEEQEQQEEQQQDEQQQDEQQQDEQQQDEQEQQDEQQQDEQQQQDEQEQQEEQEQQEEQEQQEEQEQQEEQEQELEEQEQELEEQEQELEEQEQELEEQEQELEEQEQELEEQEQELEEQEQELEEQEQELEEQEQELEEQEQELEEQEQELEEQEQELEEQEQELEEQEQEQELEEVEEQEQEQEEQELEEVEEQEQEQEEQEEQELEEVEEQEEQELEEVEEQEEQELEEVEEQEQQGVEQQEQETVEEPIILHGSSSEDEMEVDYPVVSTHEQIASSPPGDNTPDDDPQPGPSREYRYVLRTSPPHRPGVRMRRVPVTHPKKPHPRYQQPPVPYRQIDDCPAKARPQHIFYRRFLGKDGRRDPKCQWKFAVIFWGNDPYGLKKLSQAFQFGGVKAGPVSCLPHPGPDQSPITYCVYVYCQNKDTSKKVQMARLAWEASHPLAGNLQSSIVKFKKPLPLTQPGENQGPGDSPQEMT
MLL AF4-AF9 inh: inhibitors of AF4 peptide binding to AF9, primary screen, biochemical, AlphaScreen, biotin-AF4 peptide, FLAG-AF9, single point; Protein AF-9 (Homo sapiens), P42568; inhibition, % at 10 µM; 350,000 tested, 0.47% active;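 active = every replicate reaching a set inhibition limit, whatever the replicate mean, cut at about 25% in these data; inconclusive = mean inhibition reaches that limit but some replicates miss it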;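 also: 0% = plate neutral control median and 100% = total signal loss; the record names both 10 and 1 µM as test concentration; the first replicate is given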
* hit, by the source's call; ? = inconclusive; . = no result given; & = joins results of further samples.

SMILES	A1 inh	Vif A3G	Beta cell apopt	T cruzi inh	Calb FLC	RanGTP-Imp inh	LANA-H2A inh	MLL AF4-AF9 inh
Cc1ccc(-c2ccccc2)n1-c1ccc(C(=O)O)cc1	0.0	-5%	-3	-8	-5	-0.7	7.9	2.0
FC(F)(F)c1nnc(Nc2ccc(Cl)cc2)s1	0.1	5%	5	13	-28	0.2	-0.3	-0.8
COc1ccc(OCC(=O)OC2CCCN(C)C2)cc1 (stereo not drawn)	-0.5	-5%	0	8	-3	0.1	1.4	.
CC(C)c1ccc(NC(=S)N(C)CCc2ccccn2)cc1	-0.8	0%	-4	8	11	3.1	2.7	1.4
CCOC(=O)N1CCN(c2ccnc3cc(Cl)ccc23)CC1	0.4	.	1	5	52	-6.3	1.4	-2.2
O=C(O)CCN1C(=O)C2C3CC(C2C1=O)C1C(c2ccccc2)c2sc(=O)n(-c4ccccc4)c2SC31 (stereo not drawn)	-0.3	-3%	-6	-4	0	8.6	1.3	-1.9
Cc1nnc(NC(=O)c2ccc(S(=O)(=O)N3CCCCC3C)cc2)o1 (stereo not drawn)	0.0	3%	2	-12	-7	4.1	-4.0	1.8
CCc1nc2ccccc2n1Cc1cc(=O)n2cc(C)ccc2n1	-1.9	22%	0	.	.	.	-2.6	.
O=C(Cc1coc2ccc3ccccc3c12)N1CCN(c2ncccn2)CC1	0.2	21%	-3	-5	27	-3.0	-3.1	.
C#CCOCCOCCOCCNc1nc(N2CCN(C(=O)[C@H](CCC(=O)O)n3cc(C(N)[C@H](C)CC)nn3)CC2)nc(N2CCN(C(=O)[C@H](Cc3cc4ccccc4[nH]3)n3cc(C(N)[C@H](C)CC)nn3)CC2)n1 (stereo partly drawn)	2.5	8%	1	-11	0	?	-0.1	.
C=CSc1sc(Cl)c(N(CC)CC)c1[N+](=O)[O-]	0.1	.	1	1	11	-1.3	4.5	-1.2
COCc1cc(C)n(CC(=O)Nc2ccccc2OC)c(=O)c1C#N	0.5	12%	.	-11	-4	?	3.0	.
CCN(CC)C(=O)COc1ccc(-c2ccccc2)cc1	-6.9	-6%	-13	-3	-6	-4.2	3.3	.
Cc1ccc2cc3c(N)c4c(C)ccc(C)c4nc3nc2c1	.	.	.	33	-1	2.5	.	1.7
CC(C)Cn1cc(C(=O)N2CCOCC2)c2c3ccccc3n(C)c2c1=O	-0.3	21%	-1	19	-1	5.6	-3.6	.

Sorted by value in MLL AF4-AF9 inh (high to low): 3 from the list above
| mol | MLL AF4-AF9 inh |
| --- | --- |
| Cc1ccc(-c2ccccc2)n1-c1ccc(C(=O)O)cc1 | 2.0 |
| Cc1ccc2cc3c(N)c4c(C)ccc(C)c4nc3nc2c1 | 1.7 |
| CCOC(=O)N1CCN(c2ccnc3cc(Cl)ccc23)CC1 | -2.2 |

Next records
SMILES	A1 inh	Vif A3G	Beta cell apopt	T cruzi inh	Calb FLC	RanGTP-Imp inh	LANA-H2A inh	MLL AF4-AF9 inh
O=C(CSc1ncnc2c1nnn2Cc1ccccc1F)N1CCN(c2ccccc2)CC1	.	31%	.	3	-4	-1.6	.	.
C[C@H](NC(=O)c1ccccc1)C(=O)N1CCN(Cc2ccc3c(c2)OCO3)CC1	0.4	.	-1	.	.	.	4.7	2.8
O=C(CCc1ccccc1)Nc1nnc(-c2ccccn2)o1	0.6	.	-4	-11	-2	-1.6	-8.3	-0.7
CCOCCc1nnc(NC(=O)CS(=O)(=O)Cc2ccccc2)s1	-0.9	.	1	5	-1	3.8	-2.0	-0.9
CCN1CCN(Cc2ccc(NC(=O)c3ccc(C)c(NC(=O)c4cccc5[nH]ccc45)c3)cc2C(F)(F)F)CC1	-0.5	-1%&-3%	-3	14	-11	-2.0	-1.6	13&-0.1
COc1ccc(Cc2nnc(SCC(=O)NCc3ccco3)o2)cc1	?	3%	-7	-1	?	2.0	3.8	.
O=C(CN1CCN(c2ccc([N+](=O)[O-])cc2)CC1)Nc1ccccn1	0.2	-6%	-6	-18	2	1.3	3.6	.
O=C(O)CSc1nnc(-c2ccc3c(c2)OCO3)n1-c1ccccc1	-0.1	.	-5	-5	-9	-2.4	6.7	0.2
CC(=O)c1ccc(-n2nnnc2SCC(=O)N2CCN(C(=O)c3ccco3)CC2)cc1	0.9	?	0	-1	2	0.2	-8.6	.
CCOC(=O)NC(=O)/C(C#N)=C\c1ccccc1	0.1	-3%	-9	-7	7	5.8	-3.7	0.4
CCN(CC)c1nc(-c2cccc(OC)c2O)nc2ccccc12	0.1	9%	-2	32	-5	1.7	0.7	.
O=Cc1ccccc1OCCOc1ccccc1C=O	-0.1	10%	20	-25	-2	-2.9	-3.5	4.1
CCOC(=O)N1CCC(NC(=O)c2ccc3nc(N4CCOCC4)sc3c2)CC1	.	8%	.	-4	1	3.7	.	.
CCS(=O)(=O)c1nc(S(=O)(=O)c2ccc(C)cc2)c(N2CCC(C)CC2)s1	-0.8	.	2	8	16	3.3	-5.2	3.8
COC(=O)c1nnn(CC(=O)NC(=O)Nc2ccccc2)c1C(=O)OC	-0.6	-4%	-6	-20	19	0.1	1.2	.
O=C(CCN1C(=O)c2cccc3cccc(c23)C1=O)N1CCOCC1	1.5	9%	-3	-8	-6	1.4	-0.5	-0.3
CCc1noc(C)c1C(=O)Nc1ccc(F)c(F)c1F	-0.1	4%	-13	12	1	-1.8	-2.8	8.8
CC1C(=O)Nc2ccc(S(=O)(=O)N3CCCCCC3)cc21 (stereo not drawn)	-0.6	6%	1	.	.	.	-3.3	-0.9
COCc1[nH]nc2c1C(C1C=CCCC1)C(C#N)=C(N)O2 (stereo not drawn)	-0.6	1%	1	-15	15	-7.9	0.2	.
COc1cc(Cl)c(S(=O)(=O)n2cnc(C)c2)cc1Cl	1.1	1%	10	-9	0	-3.3	-12	-43
CN(CCCNC(=O)c1nn(C)c2c1CS(=O)(=O)c1ccccc1-2)Cc1ccccc1	0.3	.	-6	13	-18	1.6	-6.6	0.6
C[C@]12c3[nH]c4ccccc4c3CCN1C(=O)C(CC(=O)NCc1ccco1)C[C@@H]2C(=O)N1CCOCC1 (stereo partly drawn)	-0.3	.	0	.	.	.	94*	0.5
COc1ccc(-c2cc(C(=O)O)c3c(C)nn(-c4ccccn4)c3n2)cc1	0.1	-5%	-9	-23	-2	5.4	.	.
CN1CCN(S(=O)(=O)c2cc([N+](=O)[O-])ccc2Cl)CC1	-0.8	.	-3	5	?	0.0	0.3	-0.6
Cc1ccc(OCC(=O)N2CCN(C(=O)c3cccs3)CC2)cc1	-0.7	?	-2	1	-5	2.0	-6.3	.
CCOC(=O)Cn1c(=NC(=O)C(C)(C)C)sc2cc([N+](=O)[O-])ccc21	-0.5	7%	8	17	7	-1.4	-0.7	-0.7
Cn1c(SCc2cccc(Br)c2)nnc1-c1ccncc1	0.3	.	-2	-9	-10	7.5	0.1	-0.5
CCOc1cc(C(=S)N2CCOCC2)ccc1OS(=O)(=O)c1ccccc1[N+](=O)[O-]	0.3	-5%	-1	7	6	0.6	2.7	.
COc1ccc(-c2cc3ccccc3n2CC(O)CNCCO)cc1 (stereo not drawn)	0.4	8%	-8	11	2	-2.6	1.3	.
CCCC(=O)N1CCN(S(=O)(=O)c2cc(Cl)ccc2OC)CC1	0.5	1%	-11	3	-1	1.2	4.6	.
CCOc1ccc(Oc2c(/C=N/NC(=O)C3CC3)c(C)nn2-c2ccccc2)cc1	1.0	.	10	6	-5	-2.7	-1.8	4.1
C=CCn1c(SCC(=O)OCC)nc2cc(C(=O)NCc3ccco3)ccc2c1=O	-0.8	-1%&0%	2	-13	-15	-4.6	1.3	.
FC(F)(F)c1cccc(NC(=S)NCCN2CCOCC2)c1	-0.5	.	2	-16	-10	0.8	-2.7	4.8
Cn1c(SCC(=O)Nc2ccc3c(c2)OCCO3)nnc1-c1ccco1	0.2	16%	-2	-5	-5	1.2	-0.6	.
CC1CCCCC1NC(=O)CSc1nncs1 (stereo not drawn)	0.6	2%	0	-7	-4	-0.4	-2.7	.
CCOC(=O)c1oc2ccc(Br)cc2c1CSc1nnc(C)s1	0.6	10%	1	7	0	-3.9	2.9	.
CCC(=O)NC(=S)Nc1ccc2oc(-c3ccc(OC)cc3)nc2c1	-0.6	.	3	34	3	-2.5	0.1	0.4
CCCc1cc(C(=O)N2CCCC(N3CCN(c4ccc(F)cc4)CC3)C2)no1 (stereo not drawn)	-0.1	-1%	1	5	-3	1.1	4.0	1.3
COC(=O)Nc1ccc(Cc2ccncc2)cc1	0.6	5%	-6	-17	6	-1.1	6.0	-1.9
COc1cc(SC)ccc1C(=O)Nc1nc(C)cs1	-8.5	-7%	25	22	10	18*	4.6	-2.7
O=C(O)c1ccc(OCC2CCCO2)cc1 (stereo not drawn)	-0.9	.	-2	-8	10	0.1	2.2	1.1
Cc1cc(C)n(-c2nc(Nc3ccccc3C)nc(-n3nc(C)cc3C)n2)n1	4.3	-2%	.	70*	51	-5.6	-3.5	.
Cc1cc(C)nc(SCC(=O)Oc2ccc3oc(=O)cc(C)c3c2)n1	-0.2	9%	-2	-6	4	2.3	3.8	.
O=C(CSc1nnc(-c2cccnc2)n1-c1ccc(F)cc1)NCc1ccc2c(c1)OCO2	-0.7	13%	4	1	17	-2.6	-0.6	.
O=C1CC(N(Cc2ccc3c(c2)OCO3)C(=O)Nc2ccc(F)cc2)C(=O)N1c1ccccc1 (stereo not drawn)	0.8	31%&-10%	-12	-3	10	.	0.7	.
COC(=O)c1cccc(NC(=O)c2cnoc2C)c1	-1.0	11%	-10	-9	-1	3.0	2.6	.
COc1cc(C(=O)NCC(=O)Nc2ccc(F)c(F)c2)ccc1OCC(=O)N1CCOCC1	1.0	0%	-4	18	-5	-3.0	5.7	2.3
C/C(=N\NC(=O)c1cc(C2CC2)nc2ccccc12)c1ccc(O)cc1O	?	.	95*	9	101*	0.1	-0.7	4.1
CCC(C)[C@H](NC(=O)NC1CCCc2ccccc21)C(=O)OC (stereo partly drawn)	0.3	-6%	.	9	3	-1.6	4.0	1.3
Clc1cc(Br)ccc1NCc1cccnc1	-1.1	3%	-4	0	2	0.5	1.1	-2.9
O=C(O)c1ccc(CN2CCCCC2)o1	-0.2	27%	3	-7	5	1.8	2.8	0.4
OC1(c2ccccc2F)CCN(Cc2nnnn2CCc2ccccc2)CC1	-0.3	-8%	-4	-17	4	0.7	2.3	.
COc1ccc(Cn2ccnc2SCC(=O)Nc2ccccc2)cc1	-0.7	.	-4	0	5	-0.9	1.0	2.8
CSc1nc(-c2ccc(Cl)cc2)c(C#N)c(=O)[nH]1	-0.1	-2%	1	-19	5	4.8	0.7	-3.7
C=CCN(c1ccc(C(=O)NC(C)C)cc1)S(C)(=O)=O	.	?	.	-2	5	?	.	.
CCc1[nH]c(=S)c(C#N)c(-c2ccccc2)c1C(=O)OC	-1.0	-6%	-10	3	36	0.4	-0.2	-0.8

High-throughput results (PubChem)
